Screens: PubChem BioAssay, National Center for Advancing Translational Sciences (NCATS)
SARS PLP yeast – SARS-CoV PLP inhibition in yeast; S. cerevisiae expressing SARS-CoV PLpro, growth rescue; control for the full effect not named in the record; Potency, µM (top dose mostly 32.9 µM), for inactives: top-dose activity, positive = growth rescue; 330,000 compounds, 0.19% hits; AID 485353; active means well fitted rising curve with a large enough effect; inconclusive means small, poorly fitted or top-dose-only effect; inactive means no such curve, though single readings can be large or run the other way; note: 0% is about no effect; nearly all actives have a fitted effect of over 55% in size; growth read by luminescence after 48 h
Lassa entry inh – inhibitors of Lassa virus binding or cell entry; Lassa virus pseudotype entry inhibition, cell reporter; control for the full effect not named in the record; Potency, µM (highest dose often 37.9 µM), for inactives: at the top dose activity change, negative = inhibition, most hits filed as inhibitors; 300,000 compounds, 1.2% hits; active means well fitted inhibition curve with a large enough effect; inconclusive means small, poorly fitted or top-dose-only effect, or effect the other way; inactive means flat fitted curve, though single readings scatter; tested in HEK293 cells; note: % is set by controls: 0 for no effect and ±100 for the full control effect; nearly all actives have a fitted effect of over 50% in size; luciferase read-out
Marburg entry inh – blocks Marburg virus binding to or entry into cells; Potency, µM (series often up to 37.8 µM), without a hit: top-dose activity change, negative = inhibition, most hits filed as inhibitors; Marburg virus pseudotyped entry inhibition, cell reporter; control for the full effect not named in the record; about a third of the inactives were read at about 46 µM; 300,000 compounds, 1.8% hits; AID 540276; active = well fitted inhibition curve with a large enough effect; inconclusive = small, poorly fitted or top-dose-only effect, or effect the other way; inactive = flat fitted curve, though single readings scatter; tested in HEK293 cells; about a fifth of its hits are not listed in these tables; note: % is set by controls: 0 for no effect and ±100 for the full control effect; luciferase read-out
NS1 function inh – blocks influenza NS1 protein function; AID 2326; S. cerevisiae slowed by influenza A NS1, growth recovery by OD600; 270,000 compounds, 0.4% hits; Potency, µM (titrated, usually from 46.1 µM), without a hit: at the top dose activity, positive = more growth; active means well fitted rising curve with a large enough effect; inconclusive means small, poorly fitted or top-dose-only effect; inactive means no such curve, though single readings can be large or run the other way; note: nearly all actives have a fitted effect of over 50% in size
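Compounds were scored for reversing the slow growth caused by influenza A NS1 in S. cerevisiae, measured by optical density at 600 nm. Assay medium contained 2% galactose at pH 6.0; NS1-free yeast of the same strain were the positive control.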
Cruzain inh noDet – cruzain (T. cruzi) inhibition without detergent; 200,000 compounds, 2.3% hits; Potency, µM, inactives show max response, negative = inhibition, most hits filed as inhibitors; purified cruzain, Z-FR-AMC fluorescence, no detergent; P25779;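 note: plate controls were enzyme without inhibitor for no effect and buffer without enzyme for full effect; nearly all actives have a fitted effect of over 40% in size; top concentration of the series not given in the record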
Target sequence (P25779 123-467 limits assumed): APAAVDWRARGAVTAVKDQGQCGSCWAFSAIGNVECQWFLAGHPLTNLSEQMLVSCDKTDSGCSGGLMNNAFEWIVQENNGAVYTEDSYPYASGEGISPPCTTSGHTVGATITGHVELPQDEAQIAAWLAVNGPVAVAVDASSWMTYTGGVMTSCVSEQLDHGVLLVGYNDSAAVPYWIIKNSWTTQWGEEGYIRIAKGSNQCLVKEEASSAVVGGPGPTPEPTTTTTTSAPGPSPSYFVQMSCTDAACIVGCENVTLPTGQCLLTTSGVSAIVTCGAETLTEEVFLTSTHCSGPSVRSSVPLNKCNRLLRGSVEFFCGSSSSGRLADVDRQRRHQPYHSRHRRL
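Detergent-free condition (0.00005% Triton X-100) in acetate buffer pH 5.5 with DTT. 1.5 nM enzyme and compound were pre-mixed 15 min, then 2 uM Z-FR-AMC substrate added; reaction progress from fluorescence change between first and third reads (60 s).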
RE007 growth inh – less growth of the S. pombe RE007 Vpr strain; 360,000 compounds, 0.21% hits; Potency, µM (titrated, usually from 92.2 µM), for the others: at the highest dose activity change, negative = less growth; AID 651644; S. pombe RE007 Vpr strain, BacTiter-Glo ATP luminescence, 24 h; control for the full effect not named in the record; active = well fitted falling curve with a large enough effect; inconclusive = small, poorly fitted or top-dose-only effect; inactive = no such curve, though single readings can be large or run the other way;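 note: % is set by controls: 0 for no effect and ±100 for the full control effect; nearly all actives have a fitted effect of over 50% in size; the assay follows cell death caused by Vpr and the record does not say whether a fall means rescue or toxicity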
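Fission yeast RE007 carrying one integrated HIV-1 vpr copy, seeded at OD 0.01 in PMG+AL medium with 23 nL pinned compound. Grown 24 h at 30 degrees; viability read by BacTiter-Glo luminescence after 5 min.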
Cruzain inh Det – blocks cruzain activity in presence of Triton detergent. P25779. purified cruzain, Z-FR-AMC fluorescence, 0.01% Triton. Potency, µM, without a hit: max response, negative = inhibition, hits mostly inhibitors. 200,000 compounds, 0.43% hits. AID 1478;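 note: plate controls were neutral wells for no effect and buffer without enzyme for full effect; nearly all actives have a fitted effect of over 40% in size; top concentration of the series not given in the record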
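Cysteine protease activity tested under reducing, mildly acidic conditions (100 mM sodium acetate pH 5.5, 5 mM DTT) plus 0.01% Triton X-100. Cruzain 1.5 nM; substrate Z-FR-AMC 2 uM; 15 min compound preincubation at room temperature.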
StopGo reporter – lowers the luciferase signal of an FMDV 2A StopGo reporter; Potency, µM (titrated, usually from 57.9 µM), without a hit: top-dose signal change, negative = less light; 410,000 compounds, 1.2% hits; human cells with a luciferase reporter of 2A StopGo recoding; control for the full effect not named in the record; active = well fitted falling curve with a large enough effect; inconclusive = small, poorly fitted or top-dose-only effect; inactive = no such curve, though single readings can be large or run the other way; tested in HEK293T cells; note: % is set by controls: 0 for no effect and ±100 for the full control effect; nearly all actives have a fitted effect of over 45% in size; luciferase light after 4 h
An asterisk follows results filed as active; u = inconclusive; x = no result given; & = joins results of further samples; [ ] = another dose, or the depositor's remark. Unless noted, calls come from the whole dose curve; as a rule, active = well fitted curve in the direction sought with a large enough effect; inconclusive = small, poorly fitted or top-dose-only effect, or another doubt; inactive = no such curve, though single readings can be large; an effect the other way counts as inactive or inconclusive. Potency is the fitted concentration of half-maximal effect. Rows were taken by chance; overall some 4.8% were active at least once.

entry	canonical_smiles	SARS PLP yeast	Lassa entry inh	Marburg entry inh	NS1 function inh	Cruzain inh noDet	RE007 growth inh	Cruzain inh Det	StopGo reporter
1	O=C(CSc1nc2c([nH]c3ccccc32)c(=O)n1-c1cccc(C(F)(F)F)c1)N1CCc2ccccc21	x	-24%[46.1 µM]	x	x	-2%	x	-1.3%	-11%
2	Cc1cc(C)cc(CN2C(=O)NC3(CCCCCC3)C2=O)c1	0%	u	u	-4%	x	-15%	x	4%
3	COc1cc(C2C(C(=O)c3ccco3)=C(O)C(=O)N2Cc2cccnc2)cc(OC)c1OC (stereo not given)	5%	21%	0%&2%	-2%	-2%	-13%	0.0%	x
4	Cc1ccccc1OCC(=O)NCC(=O)OCC(=O)c1ccc([N+](=O)[O-])cc1	6%	9%[46.1 µM]	-9%&-9%[46.1 µM]	-6%	x	2%	x	3%
5	COc1cccc(/C=N/Nc2nnc(C)n2N)c1O	-5%	9%[46.1 µM]	u	-6%	x	15%	x	-5%
6	C=CC[C@H]1CC(C)=C[C@H](CC=C)N1C(=O)c1cc(COc2ccccc2SC)on1	-3%	u	-46%	-24%	x	1%	x	u
7	O=S(=O)(NCc1cc(-c2ccccc2Cl)no1)c1ccccc1	-4%	-12%	-8%	3%	0%	14%	-2.9%	8%
8	COC(=O)c1cc(S(=O)(=O)N2CCN(Cc3ccccc3)CC2)cn1C	-2%	x	x	-3%	x	-7%	x	u
9	CSCCC(NS(=O)(=O)c1ccc(C)cc1)C(=O)N1CCCC1 (stereo not given)	1%	5%[46.1 µM]	7%[46.1 µM]	15%	x	-11%	x	0%
10	COc1cc(C2/C(=C(\O)c3ccc4c(c3)OCCO4)C(=O)C(=O)N2Cc2ccco2)ccc1O (stereo not given)	-4%	25%[46.1 µM]	-14%[46.1 µM]	4%	x	3%	x	-9%
11	Cc1ccccc1OCC(=O)Nc1cccc(S(=O)(=O)NC2=NCCCCC2)c1	-7%	-4%	-3%	x	x	21%	x	25%
12	O=C(NNc1ccccc1)Nc1cc(Cl)ccc1Cl	x	u	-1%	x	x	1%	x	7%
13	CCCC(=O)Oc1ccccc1C1SCc2cc(C)c(C)cc2CS1	1%	u	u	1%	u	-10%	4.4%	-18%
14	CC(C(=O)Nc1ccc(O)cc1)c1cccc(C(=O)c2ccccc2)c1 (stereo not given)	1%	u	u	-7%	x	0%	x	u
15	O=C1CCCC2=C1C(c1ccncc1)c1c(nc(SCc3ccccc3Cl)[nH]c1=O)N2 (stereo not given)	2%	u	10µM*	-38%	-2%	-9%	5.6%	-6%
16	O=c1cc(C(O)C[N+](=O)[O-])occ1OCc1ccccc1 (stereo not given)	x	u	14%[46.1 µM]	x	x	10%	x	5%
17	CCOC(=O)c1sc2nc(C)n(CC(=O)NCC3CCCO3)c(=O)c2c1C (stereo not given)	-3%	9%	24%	-3%	2%	2%	-1.7%	3%
18	Cc1cc(N2CCOCC2)c2c(N)cc(C)c(C)c2n1	2%	1%	-18%	1%	10%	0%	-0.1%	u
19	CCOC(=O)/C(C#N)=C\c1ccc(O)c(OC)c1	-4%	-3%	26%[46.1 µM]	x	x	-8%	x	2%
20	Cc1ccc(C)c(NC(=O)Cn2cnc3nc4c(cc3c2=O)CCCC4)c1	x	-14%[46.1 µM]	x	x	0%	x	-1.2%	-29%
21	Cc1noc(C)c1COC(=O)C1(c2cccc(F)c2)CCCC1	-4%	u	-23%	-9%	-7%	6%	0.0%	u
22	O=C1C(Cl)=C(N2CCCCC2)C(=O)N1Cc1ccccc1	-52%	-14%	u	-21%	-3%	-8%	-5.0%	-20%
23	CNC(=S)N1CCN(c2ccc(OC)cc2)CC1	-1%	11%	15%	-1%	-11%	4%	6.3%	x
24	CCOc1ccccc1NC(=O)CSc1ccc([N+](=O)[O-])cc1	2%	0%	-26%[46.1 µM]	x	x	6%	x	-15%
25	CCCc1nn(C)c(C(=O)Nc2ccccc2)c1Cl	21%	u	u	-9%	-7%	3%	-6.6%	u
26	CCCN(CCC)C(=O)c1cc(S(=O)(=O)N2CCCCC2)c[nH]1	11%	x	x	-3%	x	7%	x	-19%
27	COCCn1c(C)cc(O)c(C(c2ccccc2OC)N2CCN(c3ccccc3)CC2)c1=O (stereo not given)	x	28%[46.1 µM]	x	x	5%	x	3.4%	-30%
28	CCN(CC)c1nc2ccccc2[nH]c1=O	-1%	7%[46.1 µM]	-2%[46.1 µM]	-7%	x	-10%	x	-4%
29	O=C(CCn1c(=O)c2ccccc2n(Cc2cccnc2)c1=O)NCc1ccc2c(c1)OCO2	-1%	-1%	0%	0%	-16%	11%	2.0%	17%
30	COc1ccc(C2NC(=O)c3ccccc3N2)cc1 (stereo not given)	0%	u	u	-8%	x	38%	x	41%[activator]
31	COc1ccccc1NC(=O)c1nn(-c2cccc(C(F)(F)F)c2)ccc1=O	-5%	-8%	1%[46.1 µM]	14%	2%	4%	-11%	-6%
32	N#CC1=C(N)Oc2ccccc2C12C(=O)Nc1n[nH]c(-c3ccccc3)c12 (stereo not given)	1%	-3%	2%	7%	-7%	5%	-0.4%	-21%
33	COC(=O)COc1ccc2c(=O)c(Oc3ccccc3Br)coc2c1	0%	0%[46.1 µM]	8%[46.1 µM]	2%	x	7%	x	-21%
34	CC1=C2C3OC(=O)C(C)C3CCC2(C)C=CC1=NO (stereo not given)	x	-5%[46.1 µM]	0%[46.1 µM]	x	x	-20%	x	17%
35	CC(C)CC(NS(=O)(=O)c1ccccc1S(=O)(=O)NC(CC(C)C)C(=O)O)C(=O)O (stereo not given)	3%	x	x	22%	x	6%	x	-7%
36	CC(C(=O)c1c[nH]c2ccccc12)N1CCN(C(=O)c2ccco2)CC1 (stereo not given)	0%	-5%	1%	-4%	x	-30%	x	-13%
37	COC(=O)c1ccccc1NC(=O)CN(c1ccccc1)S(=O)(=O)N(C)C	x	-8%	-1%	x	x	-13%	x	-14%
38	S=C(Nc1ccc(Br)cc1)NC1CCCC1	u	u	-5%	-16%	-7%	8%	-3.7%	36%[activator]
39	O=C1CCc2cc(NS(=O)(=O)c3ccc([N+](=O)[O-])cc3)cc3c2N1CC3	5%	u	14%	x	x	-10%	x	28%
40	COc1ccc(C2C(C(=O)N3CCCC3)c3cc(OC)c(OC)cc3C(=O)N2C)cc1OC (stereo not given)	-1%	5%	10%&10%[46.1 µM]	-5%	-1%	5%	0.4%	5%
41	CC(C)CCNC(=O)c1ccc2c(c1)N(Cc1cccc(Cl)c1)C(=O)c1ccccc1S2	x	-10%[46.1 µM]	x	x	u	x	0.9%	-19%
42	CC(=O)N1CCc2c(sc3c2c(=O)n(-c2ccccc2)c(=O)n3CC(=O)NCC2CCCO2)C1 (stereo not given)	-4%	x	x	5%	x	23%	x	-19%
43	CC(O)CN(Cc1cccc(Cl)c1)CC(C)O (stereo not given)	5%	-2%	7%	-5%	-3%	-2%	1.3%	0%
44	O=C1CCC(C(=O)N2CCCCO2)CN1Cc1ccc(Cl)cc1 (stereo not given)	u	-1%	0%	-2%	x	-2%	x	-9%
45	Cc1c(CNC(=O)c2cnn3c2NC(c2ccc(Br)cc2)CC3C(F)(F)F)cnn1C (stereo not given)	0%	2%	6%&6%	-31%	u	-2%	-5.6%	-12%
46	COc1cc(SSc2cc(OC)cc([N+](=O)[O-])c2N)c(N)c([N+](=O)[O-])c1	-19%	x	x	14%	x	u	x	u
47	Cc1cc(-c2ccc(S(=O)(=O)Nc3ccc(C#N)cc3)s2)on1	16%	-16%[46.1 µM]	17%[46.1 µM]	0%	x	7%	x	20%
48	Cc1ccc(C2(O)CN(c3ccccc3)C3=[N+]2CCS3)cc1 (stereo not given)	-14%	-7%	0%	7%	-7%	5%	0.9%	-27%
49	COc1ccc(OC)c(S(=O)(=O)N2CCN3CCCC3C2)c1 (stereo not given)	0%	7%	7%	-3%	x	6%	x	17%
50	O=C(NC1CCCCC1)c1c2c(nc3ccccc13)CCC2	1%	6%[46.1 µM]	-11%[46.1 µM]	x	x	8%	x	-8%
51	O=C(CNC(=O)C1COc2ccccc2O1)Nc1ccc(F)c(F)c1 (stereo not given)	-1%	-23%	-12%	x	x	3%	x	1%
52	CCn1c(=O)[nH]c2cc(C(=O)N3CCN(c4ccccc4)CC3)ccc2c1=O	2%	-6%	11%	-13%	2%	16%	-5.3%	12%
53	CCOC(=O)c1c(NC(=O)COc2cccc(C(F)(F)F)c2)sc2c1CCCCC2	x	13%[46.1 µM]	x	x	1%	x	-2.5%	0%
54	COc1ccc(/C=N/NC(=O)c2cc(C34CC5CC(CC(C5)C3)C4)[nH]n2)cc1OC	-22%	-8%	u	17%	11%	-14%	-11%	-28%
55	O=c1[nH]n(-c2cccc(Cl)c2)c2ncccc12	-13%	1%	13%	-101%	-14%	-14%	-1.0%	23%
